Menin-MLL FL inh: displaces fluorescein MLL peptide from human menin; Fluorescence polarization, fluorescein-MLL peptide displacement from menin; FP activity change, % at 61.4 µM; AID 1766; 290,000 tested, under 10 active; inconclusive = falling polarisation curve, or a change in total fluorescence; inactive = total fluorescence flat and polarisation flat or rising; no compound was filed as active; the % refers to the polarisation; negative = inhibition;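 further: % of control where 0% means no effect; inhibitors lower the polarisation; unlabelled MLL peptide was the positive control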
TRPV1 potentiator: enhances activation of the human vanilloid receptor TRPV1; TRPV1-expressing cells, Fluo-8 calcium influx, capsaicin EC20 potentiation; host cell line not named in the record; control for the full effect not named in the record; potentiation, % at 8.33 µM; hit rate 0.02% among 320,000; AID 540277; active means potentiation above 80%; inconclusive means 30% to 80%; inactive means below 30%; further: 0% is about no effect
Target sequence (Q8NER1 whole entry, looked up): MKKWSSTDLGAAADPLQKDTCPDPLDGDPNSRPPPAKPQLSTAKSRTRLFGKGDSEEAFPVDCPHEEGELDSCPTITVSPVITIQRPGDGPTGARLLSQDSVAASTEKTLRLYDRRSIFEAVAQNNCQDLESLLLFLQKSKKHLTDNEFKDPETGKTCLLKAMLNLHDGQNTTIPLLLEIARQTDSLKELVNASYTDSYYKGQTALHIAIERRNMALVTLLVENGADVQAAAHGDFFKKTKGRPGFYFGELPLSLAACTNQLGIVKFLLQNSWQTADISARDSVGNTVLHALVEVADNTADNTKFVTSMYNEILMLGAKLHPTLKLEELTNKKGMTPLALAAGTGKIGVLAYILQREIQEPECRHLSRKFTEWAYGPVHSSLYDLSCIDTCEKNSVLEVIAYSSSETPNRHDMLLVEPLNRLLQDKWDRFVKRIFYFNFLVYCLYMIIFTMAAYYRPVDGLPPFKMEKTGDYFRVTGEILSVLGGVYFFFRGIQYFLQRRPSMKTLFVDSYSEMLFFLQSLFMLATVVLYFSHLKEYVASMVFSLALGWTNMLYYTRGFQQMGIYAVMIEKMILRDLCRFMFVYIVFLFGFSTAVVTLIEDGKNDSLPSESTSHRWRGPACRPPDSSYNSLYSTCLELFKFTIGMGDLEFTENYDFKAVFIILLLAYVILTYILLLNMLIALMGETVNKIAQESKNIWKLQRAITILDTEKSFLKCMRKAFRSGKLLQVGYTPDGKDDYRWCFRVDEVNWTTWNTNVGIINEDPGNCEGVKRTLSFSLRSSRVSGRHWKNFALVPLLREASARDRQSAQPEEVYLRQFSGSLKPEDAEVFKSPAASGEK
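Fluo-8 calcium influx in TRPV1-expressing cells, kinetic read (ex 480/em 520 nm). Compound added and read 3 min for agonist activity, followed by capsaicin at EC20 final and 2 min further read for enhancement.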
gsp ag: gsp mutant agonism; Potency, µM (doses to about 76.9 µM), without a hit: at the top dose activation (cAMP increase), actives largely listed as activators; gsp mutant cells, cAMP HTRF, 30 min; control for the full effect not named in the record; AID 624287; hit rate 0.13% among 340,000; active = well fitted activation curve with a large enough effect; inconclusive = small, poorly fitted or top-dose-only effect, or another doubt; inactive = no such curve, though single readings can be large or run the other way; cell line not stated here;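 further: phosphodiesterase inhibitor Ro 20-1724 added with compounds to block cAMP breakdown; potency means the concentration at half of the fitted maximal effect; nearly all actives have a fitted effect of over 60% in size; about a fifth of the inactives were tested at one dose only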
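Cells in DMEM/10% FBS with G418 were pretreated with compounds in DMSO plus […] (300 uM stock) for 30 min at 37C. cAMP was measured by HTRF (cAMP-d2 plus anti-cAMP antibody-K) after 30 min at room temperature.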
ClpP mod: qHTS Assay for Activators of ClpP | purified B. subtilis ClpP, FRET peptide cleavage, 20 min | Potency, µM (doses to about 57.5 µM), for the others: top-dose activity change, negative = active | hit rate 1.9% among 340,000 | AID 651965, 2013; active = well fitted falling curve with a large enough effect; inconclusive = small, poorly fitted or top-dose-only effect; inactive = no such curve, though single readings can be large or run the other way; further: potency means the concentration at half of the fitted maximal effect; the source files actives as falling curves though it sought activators and does not explain the sign; nearly all actives have a fitted effect of over 65% in size; many hits overshoot -100%
Target sequence (P80244 whole entry, looked up): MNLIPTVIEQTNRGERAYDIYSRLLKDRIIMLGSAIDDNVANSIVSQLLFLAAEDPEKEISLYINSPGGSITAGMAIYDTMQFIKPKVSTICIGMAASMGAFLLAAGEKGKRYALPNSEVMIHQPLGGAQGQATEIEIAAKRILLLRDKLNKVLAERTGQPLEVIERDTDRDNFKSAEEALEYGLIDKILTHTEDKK
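Buffer: 100 mM Tris/HCl pH8, 100 mM KCl, 0.05% low protease BSA, 2.5% glycerol, 0.01% Tween-20. ClpP 10 microg/mL final; 20 min RT; delta FRET normalized to ADEP and DMSO controls.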
Sfp inh: inhibitors of Bacillus subtilis Sfp phosphopantetheinyl transferase; Q9F4F7; Biochemical Sfp PPTase activity, qHTS; Potency, µM, inactives show max response, negative = inhibition, usual class: inhibitors; hit rate 3.5% among 310,000; AID 1490; active means well fitted inhibition curve with a large enough effect; inconclusive means small, poorly fitted or top-dose-only effect, or another doubt; inactive means no such curve, though single readings can be large or run the other way;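 further: the enzyme is Sfp with the accession as filed and its product quenches rhodamine fluorescence; potency means the concentration at half of the fitted maximal effect; 0% = enzyme reaction without inhibitor and -100% = no enzyme wells; top concentration of the series not given in the record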
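Sfp 15 nM + cpd, 15 min RT; start w/ rhodamine-CoA 5 uM, BHQ-2-YbbR 12.5 uM (final); 50 mM Hepes pH 7.6, 10 mM MgCl2, 0.01% NP-40, 0.01% BSA; read 525/598 nm at 0 and 30 min.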
gsp antagonist: antagonizes gsp, the McCune-Albright syndrome mutation | gsp-mutant cells, cAMP HTRF, 30 min; control for the full effect not named in the record | Potency, µM (highest dose often 76.9 µM), inactives show at the top dose activity change, negative = inhibition, actives largely listed as inhibitors | hit rate 0.4% among 340,000 | AID 624288; active = falling curve of any shape with a large fitted effect; inconclusive = falling curve, mostly with a smaller effect; inactive = flat or rising curve; cell line not stated here;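 further: intracellular cAMP measured with PDE inhibitor Ro 20-1724 present during compound exposure; potency means the concentration at half of the fitted maximal effect; on the % scale 0 is the no-effect control and ±100 the full control effect; nearly all actives have a fitted effect of over 65% in size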
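Measurement of cellular cAMP by homogeneous time-resolved fluorescence following a 30 min compound exposure at 37C. The PDE inhibitor […] was present throughout; the assay buffer was DPBS with 0.05% BSA and 0.005% Tween 20.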
TRPML1 inh: human mucolipin-1 channel inhibition. Q9GZU1. AID 624415. TRPML1-inducible cells, Ca2+ dye fluorescence, FDSS; stronger effect = lower value; inhibition of EC80 agonist-evoked calcium signal. hit rate 0.02% among 390,000. activity change, negative = inhibition, % (test concentration not listed); in the data active means activity change below about -50%; inconclusive means about -30% to -50%; inactive means above about -30%;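 further: stimulus is agonist 54-4 at its EC80 concentration; on the % scale 0 is the no-effect control and ±100 the full control effect; compound concentration not given in the record; the text of the record puts the active cut at -80%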
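Tet-induced TRPML1-DL cells loaded with Ca8 no-wash calcium dye were read kinetically on FDSS. Compound addition was followed by EC80 agonist 54-4 (4 uM final); inhibition was read over 110 s.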
* marks the source's active call; other numbers are inactive results; ? = inconclusive; . = no result given; [ ] = remark or other dose.

SMILES | Menin-MLL FL inh | TRPV1 potentiator | gsp ag | ClpP mod | Sfp inh | gsp antagonist | TRPML1 inh
Cc1ccc(C(=O)N[C@H](C(=O)OCc2cc(=O)oc3cc(C)ccc23)C(C)C)cc1 | 11 | -14 | -2%[15.4 µM] | 0.4% | 32%[activator] | -7% | 7
COc1ccc(NC(=O)CCc2nnc3ccc(N4CCC5(CC4)OCCO5)nn23)cc1 | -2.2 | -6 | 33% | -5.4% | 12% | -16% | 31
Nc1ccc(Oc2cccc(Oc3ccc(N)cc3)c2)cc1 | -4.3 | 4 | 29% | . | 12% | -4% | 11
O=C(CN1CCN(Cc2ccccc2)CC1)NC(=O)NC1CCCCC1 | -0.6 | 16 | -9% | 3.6% | 11% | -3% | 7
COCc1[nH][nH]c(=O)c1C=NCC(=O)OC | -1.4 | -2 | -28% | 1.0% | 0% | 7% | 9
COc1ccc(NC(=O)O/N=C/c2ccncc2)cc1 | 8.4 | 5 | 16% | . | -3% | 10% | -2
O=[N+]([O-])c1cc2c(c(CSc3nnc(Nc4ccccc4)s3)c1)OCOC2 | 0.0 | 10 | 20% | -1.2% | -10% | -1% | 7
Cc1cc(N(C)C(=O)c2ccc3c(c2)S(=O)(=O)c2cc(Cl)ccc2C3=O)c(C(F)(F)F)o1 | . | . | ? | 2.7% | . | 17% | 19
CCCNS(=O)(=O)c1cccc2cccnc12 | 1.4 | . | 10% | 1.9% | 15% | 5% | -3
CCOC(=O)c1sc(=S)n(C)c1C | -3.7 | 6 | -9% | 1.1% | -2% | 1% | 9
CCOC(=O)C1CCN(C(=O)CN(c2cc(Cl)ccc2OC)S(=O)(=O)c2ccccc2)CC1 | . | 4 | 4% | 1.4% | 5% | -31% | 20
O=S(=O)(Nc1ccccc1Cl)c1cccc2nsnc12 | 0.2 | ? | -11% | -0.8% | 20% | -11% | .
COc1ccc(/C=N/NC(=O)c2cc(-c3cccnc3)nc3ccccc23)c(OC)c1 | 2.4 | ? | 2%[15.4 µM] | . | 15% | -19% | 4
O=C(COC(=O)CCC1CCCC1)Nc1ccc(Cl)cc1F | 6.5 | -10 | -14% | 1.3% | 5% | -13% | 8
CCC(C)N1CC(O)=C(c2nc3ccccc3[nH]2)C1=N (stereo not given) | 1.2 | -5 | -1% | -0.5% | 10% | 3% | -1
Cc1ccccc1NC(=O)Cc1nc(COC(=O)c2ccc(Cl)c(S(N)(=O)=O)c2)cs1 | . | 2 | 1% | -7.6% | . | -5% | 1
CCn1c(N)c(C(=O)NCc2ccco2)sc1=S | -1.4 | 0 | -7% | 2.2% | 22µM* | 1% | -16
Cc1cccc(CNC(=O)c2ccc(NC(=O)C3=CSCCO3)cc2)c1 | -1.7 | -10 | ? | 0.5% | 16% | -14% | -5
Cc1cccc(N2CCCn3c2nc2c3c(=O)n(CCN3CCOCC3)c(=O)n2C)c1 | -1.1 | -22 | 2% | -14% | -1% | -1% | -5
CC1CN(c2nc(N(C)c3ccccc3)nc(N)c2[N+](=O)[O-])CC(C)O1 (stereo not given) | -0.6 | 10 | 4% | . | 4% | 7% | -2
CCC(=O)c1ccc(OCCN2CCOCC2)cc1 | 0.1 | 4 | 0% | -1.5% | 10% | 11% | -6
COc1ccccc1C(=O)NCCCCNC(=O)c1ccccc1OC | . | . | 6%[15.4 µM] | 0.8% | . | -3% | 5
O=C(C1CCN(S(=O)(=O)c2cnc[nH]2)CC1)N1CCc2ccccc2C1 | 4.7 | -4 | -66%[inhibitor] | -0.4% | -1% | 10% | 4
Cn1cc(SCC(=O)NC2CCCC2)c2ccccc21 | 1.9 | 4 | 1% | -0.2% | 2% | 3% | -3
CCCn1c(SCC(=O)N2CCc3ccccc3C2)nc(O)cc1=O | . | . | -6% | -3.7% | . | -25% | 0
C[C@@H]1CN([C@H](C)CO)C(=O)CCCn2cc(nn2)CO[C@H]1CN(C)C(=O)Nc1cccc(F)c1 | . | . | -33% | -0.9% | . | . | -3
COc1cc(NCCC(=O)c2cccs2)c(OC)cc1Cl | 1.9 | -29 | 17%[15.4 µM] | . | -9% | -7% | -15
CCOc1ccc(-c2noc(-c3cccnc3)n2)cc1OC | 4.0 | 11 | 11%[15.4 µM] | -1.1% | 0% | -4% | 3
Cc1cc(NC(=O)CCN2CCN(C)CC2)ccc1Br | -0.4 | 6 | -12%[15.4 µM] | -0.5% | 3% | 2% | 9
COc1ccc(Cl)cc1NC(=O)CCN1C(=O)C2CC=CCC2C1=O (stereo not given) | . | 2 | -35%[inhibitor] | -1.9% | 11% | 9% | -4
NC(=O)/C(=C/c1ccco1)NC(=O)/C=C/c1ccccc1 | -0.3 | 14 | -5% | -5.7% | 4% | 5% | -4
O=[N+]([O-])c1ccc(S(=O)(=O)NCC2CCCO2)cc1 (stereo not given) | 3.0 | -14 | -1%[15.4 µM] | -1.8% | 5% | 11% | -5
Nc1nc(NCCCN2CCOCC2)nc(Nc2ccc(F)cc2)c1[N+](=O)[O-] | 0.5 | -6 | -1%[15.4 µM] | -6.6% | -14% | 13% | 2
C(=NN=Cc1c[nH]c2ccccc12)c1c[nH]c2ccccc12 | . | . | -9% | -0.2% | . | . | 36
O=C(CCNC(=O)c1ccc(Br)cc1)Nc1ccc(S(=O)(=O)N2CCOCC2)cc1 | . | . | -7% | 1.1% | . | 8% | -14
O=C(CNS(=O)(=O)c1ccccc1F)OCC(=O)c1c[nH]c2ccccc12 | . | 8 | -34%[inhibitor] | 0.7% | . | -8% | 21
CCCCCN(C(=O)NC(=O)Nc1ccccc1C)S(=O)(=O)c1ccccc1 | 0.5 | 0 | 15%[15.4 µM] | . | 14% | -7% | 12
Cc1ccc(OCCn2c(=O)oc3ccc(C)cc32)cc1 | 1.3 | 14 | -27% | -1.7% | -6% | 4% | -5
COc1ccc(CC(NC(C)=O)C(=O)NC2CCN(C(=O)Nc3ccccc3C)CC2)cc1OC (stereo not given) | . | -5 | -23% | 0.1% | 26% | -1% | -18
CCOC(=O)c1sc(NC(=O)c2ccc(C)s2)cc1C | -1.3 | -13 | -2% | ? | -1% | -8% | 50
COc1cccc(C(=O)OC(C)C(=O)NCC2CCCCC2)c1 (stereo not given) | . | 0 | 9% | -7.0% | . | -3% | -17
Cc1sc2nc(CN(CCc3ccccc3)C(=O)c3ccco3)[nH]c(=O)c2c1C | -1.0 | -3 | 7% | 1.2% | -1% | 3% | -22
NC(=O)CSc1n[nH]c(-c2ccco2)n1 | -1.8 | 0 | -38%[inhibitor] | . | 8% | 7% | 5
O=C(CC1C(=O)NC2CCCCC2N1C(=O)c1ccc(F)cc1)Nc1ccccc1 (stereo not given) | -4.0 | 29 | 3% | 0.7% | 12% | -7% | -27
COc1ccc(CCN(Cc2cc3cccc(C)c3[nH]c2=O)C(=O)NC2CCCCC2)cc1OC | 0.1 | ? | 6% | -5.2% | 2% | -8% | -9
O=C(CSc1nnc(-c2ccncc2)n1-c1ccccc1)NCC1CCCO1 (stereo not given) | . | 25 | 19% | -3.8% | . | 15% | 5
Cc1cc(S(=O)(=O)NCc2ccccc2)ccc1OCC(=O)NCc1cccnc1 | 0.0 | 1 | 3% | . | 5% | 0% | -3
C/C(Cl)=C/Cc1c(C)[nH]c2ccc(C)cc2c1=O | 3.5 | -7 | 0% | -2.0% | 16% | 17% | -10
CCOC(=O)c1cc(CC)sc1NC(=O)c1cc([N+](=O)[O-])ccc1N1CCOCC1 | 3.0 | 4 | -20% | -2.9% | 0% | -4% | 0
CC/C(C)=N/Nc1nc2c(c(=O)[nH]c(=O)n2C)n1Cc1ccccc1 | -0.5 | 0 | 10%[15.4 µM] | ? | -15% | -11% | 6
COc1ccc(C(=O)[C@H]2[C@H]3C(=O)N(c4ccc(OC(C)=O)cc4)C(=O)[C@H]3C3C=CC=NN32)cc1 (stereo not given in full) | ? | -7 | -11%[15.4 µM] | . | 2% | -5% | -6
O=C(O)c1cccc(NC(=S)N/N=C/c2ccccc2OCc2cccc(Br)c2)c1 | 2.7 | 1 | -4% | 2.2% | ? | -27% | -6
Oc1c(N=NC(=S)Nc2ccccc2F)c2ccccc2n1Cc1ccccc1Cl | 3.3 | 7 | -22% | -0.6% | 5% | 5% | 26
Cc1ccc(C(=O)C[n+]2cc(-c3ccc(C)cc3)n3c2CCCCC3)cc1 | -0.6 | -3 | ? | -1.4% | 3% | 4% | 13
CCC1(C)Cc2ccccc2-c2nc(NCCCO)n(C)c(=O)c21 (stereo not given) | -0.1 | 9 | -83%[inhibitor] | 3.5% | 3% | 9% | 9
O=C(O)CSc1ccccn1 | -1.1 | -8 | 23% | ? | ? | 5% | -4
CCOC(=O)c1nnn2c1nc(N1CCOCC1)c1ccccc12 | -1.3 | -4 | ? | . | 25% | -4% | -19
CC(=O)Nc1ccc(NC(=O)c2c([N+](=O)[O-])cnn2C)cc1 | -0.9 | -14 | -31%[inhibitor] | . | 19% | 4% | 18
COC(=O)[C@@H](NC(=O)N(C1CCCCC1)C1CCCCC1)C(C)C | 3.3 | 1 | 7% | 1.0% | 24% | -20% | 9
C/C(CCc1ccc2c(c1)OCO2)=N\N=C1\NC(=O)CC(C(=O)Nc2ccc(Cl)cc2)S1 (stereo not given) | 6.3 | 7 | 6% | -0.6% | 19% | -10% | -2

The list continues:
SMILES | Menin-MLL FL inh | TRPV1 potentiator | gsp ag | ClpP mod | Sfp inh | gsp antagonist | TRPML1 inh
OCC1CCN(Cc2cn(Cc3ccccc3)nc2-c2cc3ccccc3o2)CC1 | 0.8 | -7 | 5%[15.4 µM] | -0.1% | 8% | 23% | 4
Cc1nn(C)c(C(=O)N/N=C/c2ccc(Br)cc2)c1Cl | . | -6 | -1%[15.4 µM] | 1.5% | 13% | 1% | 25
CCOC(=O)c1ccccc1NC(=O)CN1C(=O)CCS(=O)(=O)c2ccccc21 | -1.0 | 0 | ? | -13% | 1% | -4% | 13
CC(C)(C)c1nc(SCC(=O)NC2CCCC2)c2ccccc2n1 | 3.1 | -9 | 4%[15.4 µM] | . | 1% | 14% | 0
NS(=O)(=O)c1ccc(CNC(=O)c2cc(=O)c3ccccc3o2)cc1 | -0.1 | 13 | 7%[15.4 µM] | . | 18% | 10% | 3
